VDR inhibitor: blocks the human vitamin D receptor. P11473. VDR-SRC2-3 peptide fluorescence polarization, 2 h. Potency, µM, for inactives: max response, negative = inhibition, actives largely listed as inhibitors. 0.93% of 400,000 active. AID 504847; active = well fitted inhibition curve with a large enough effect; inconclusive = small, poorly fitted or top-dose-only effect, or another doubt; inactive = no such curve, though single readings can be large or run the other way; also: series mostly up to about 120 µM
Target sequence (P11473 whole entry, looked up): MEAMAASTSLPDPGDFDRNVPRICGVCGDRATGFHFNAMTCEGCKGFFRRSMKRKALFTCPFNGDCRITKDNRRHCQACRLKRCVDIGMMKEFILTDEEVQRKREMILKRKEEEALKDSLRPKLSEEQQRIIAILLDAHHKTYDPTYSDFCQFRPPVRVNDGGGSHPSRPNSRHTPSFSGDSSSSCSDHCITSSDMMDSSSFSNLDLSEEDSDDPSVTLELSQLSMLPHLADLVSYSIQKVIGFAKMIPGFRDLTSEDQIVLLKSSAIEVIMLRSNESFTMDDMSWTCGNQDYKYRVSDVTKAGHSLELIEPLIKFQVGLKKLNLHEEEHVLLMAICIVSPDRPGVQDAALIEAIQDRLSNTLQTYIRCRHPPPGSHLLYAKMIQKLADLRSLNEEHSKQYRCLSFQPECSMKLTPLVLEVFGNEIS
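Fluorescence polarization assay of small-molecule disruption of VDR binding to coregulator peptide SRC2-3. Compounds and controls pin-transferred, then read after 2 h incubation at ambient room temperature.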
Numbers without * were called inactive; ? = inconclusive; & = joins results of further samples; [ ] = remark or other dose. % is scaled to controls: 0 for no effect and ±100 for the full control effect; potency is read from the fitted curve at half-maximal effect.

VDR inhibitor | structure
14% | COC(=O)c1ccc(C(=O)OC)c(NC(=O)c2cnn3c(C(F)F)cc(-c4ccccc4)nc23)c1
-15% | COc1ccc(S(=O)(=O)N2CCNCC2)cc1
-4% | CCCCOc1cccc(C(=O)Nc2cc(NC(=O)c3ccco3)ccc2OC)c1
13% | CCOc1ccc(NC(=O)N2CCN(c3nnc(C)c4c(C)n(-c5ccccc5)nc34)CC2)cc1
-15% | CC(NC(=O)OCc1ccccc1)C(=O)OCN1C(=O)c2ccccc2C1=O (configuration not stated)
27% | Brc1cccc(CNCc2ccncc2)c1
6% | COCCN(Cc1nnc(-c2cccs2)o1)C(=O)c1cccc(S(=O)(=O)N2CCOCC2)c1
-2% | CCOc1ccccc1NC(=O)CN1C(=O)C2(SCC(=O)N2c2ccc(C)cc2)c2ccccc21 (configuration not stated)
7% | O=C(NCC1CCCO1)c1cccc(F)c1 (configuration not stated)
9% | CCc1nn(CC(=O)N2CCN(c3cccc(C)c3C)CC2)c(=O)c2cc3sccc3n12
1% | COc1ccc(N2C(=O)Cc3c2nc(N)c(C#N)c3N)cc1
-6% | CC1(N2CCOCC2)C(=O)c2ccccc2C1=O
9% | C/C(Cc1ccccc1)=N\NC(=O)c1ccccn1
-26% | Cc1ccc(NC(=O)C[n+]2ccn(C3=C([O-])c4ccccc4C3=O)c2)cc1
5% | O=[N+]([O-])c1cccnc1N1CCN(Cc2ccc3c(c2)OCO3)CC1
-12% | O=C1C(=O)N(CCCN2CCOCC2)C(c2ccc(Cl)cc2)/C1=C(/O)c1ccc(F)cc1 (configuration not stated)
-8% | O=Cc1c(Nc2ccccc2Cl)nc2ccccn2c1=O
-14% | CCOC(=O)C(NC(=O)NCc1ccc(OC)cc1)(OCC)C(F)(F)F (configuration not stated)
76%[activator] | CC(CN1CCCC1)OC(=O)COc1ccccc1 (configuration not stated)
2% | Cc1c(C(=O)Nc2ccccc2)sc2nc[nH]c(=O)c12
11% | O=C(CSc1nc2ccccc2n1CC(=O)N1CCOCC1)N1CCCC1
-14% | COc1cc(/C=N/N2CCOCC2)ccc1OCc1ccccc1
-15% | CCCCC(=O)Nc1ccc(C(=O)NNC(=S)NC(=O)c2cccs2)cc1
15% | CC(C)CC(=O)Nc1ccc(-c2cn3ccsc3n2)cc1
8% | CC(=O)NS(=O)(=O)c1ccc(NC(=O)c2cccc3ccccc23)cc1
0% | Cc1cccc(NC(=S)NC2CCCC2)c1
4% | C=CCn1c(SCC(=O)N2CC(=O)Nc3ccccc32)nc2scc(-c3ccccc3)c2c1=O
17% | Cc1ccc(S(=O)(=O)N2CCN(S(=O)(=O)c3ccccc3)C2)cc1
-10% | O=[N+]([O-])c1cc(-c2cccnc2)n[nH]1
-4% | CN(CC(=O)Nc1cccc(F)c1)CC(=O)Nc1cccc(S(=O)(=O)N2CCCCCC2)c1

In the list so far, 2 have an NH in an aromatic ring:
VDR inhibitor | structure
2% | Cc1c(C(=O)Nc2ccccc2)sc2nc[nH]c(=O)c12
-10% | O=[N+]([O-])c1cc(-c2cccnc2)n[nH]1

Carrying on.
VDR inhibitor | structure
10% | CCOc1cccc(C(=O)N(Cc2ccc(F)cc2)C2CCS(=O)(=O)C2)c1 (configuration not stated)
9% | N#Cc1ccccc1NC(=O)CN1CCN(c2ccccn2)CC1
-5%&-8% | Cc1cccc(Cn2c(Cc3ccccc3)nc3ccccc32)c1
-25% | CN(c1ccccc1C(=O)Nc1ccc(S(=O)(=O)N2CCOCC2)cc1)S(=O)(=O)c1ccccc1
-13% | CCOC(=O)c1cc(CC)sc1NC(=O)CN1C(=O)C(=O)N(CC(C)C)C1=O
-10% | COc1ccccc1N(C1=NCCCS1)S(=O)(=O)c1ccc(C(C)(C)C)cc1
-7% | COc1ccc(/C=C/C(=O)c2ccc(OC)cc2O)cc1
24% | Cc1cccc(NC(=O)COC(=O)CSc2ccccc2)c1C
-3% | Cc1ccc2ccc(C(Nc3cccc(C(F)(F)F)c3)c3cccnc3)c(O)c2n1 (configuration not stated)
7% | COc1ccccc1C(=O)N/N=C/C(C)=C/c1ccccc1
3% | Cc1nn(C)c(C)c1NC(=O)CCl
-18% | COc1ccc(NC(=O)Nc2ccc(OC)cc2)cc1
-13%&-5% | COc1ccc(CC(C)NS(=O)(=O)c2ccc3c(c2)CCN3S(C)(=O)=O)cc1OC (configuration not stated)
3% | Cc1ccc(C(=O)NC(=S)Nc2ccccc2C)cc1
10% | O=C(COC(=O)CCN1C(=O)c2ccccc2C1=O)Nc1ccccc1[N+](=O)[O-]
-5% | O=C(Cn1cc([N+](=O)[O-])cn1)N1CCN(c2ccccc2)CC1
-13% | Cc1cc2[nH]c(=O)c(=O)[nH]c2cc1S(=O)(=O)Nc1ccccc1F
4% | O=C(CCN1CCCC1=O)NC1CCCc2c1cnn2-c1ccccc1F (configuration not stated)
-25% | CSc1cccc(NC(=O)OC2CCCCCCCCCCC2)c1
-11% | CCn1nc(NC(=O)Cc2ccc(OC)cc2)c2cc3cccc(C)c3nc21
-13% | C#CCNC(=O)C1=C[C@@H](C(C)(C)C)C[C@@H](OCc2ccc(CO)cc2)O1
-8% | CCCn1c(C2CCCN2c2nc(C)cs2)nc2cc(Cl)c(Cl)cc21 (configuration not stated)
7% | COc1ccc(NC(=O)CN2CCN(CC(=O)Nc3ccc4c(c3)OCO4)CC2)cc1
-14% | CCOc1ccc(-n2c(-c3ccc(OC)cc3)cc3c2CC(C)(C)CC3=O)cc1
-13% | CSc1ccc(/C=C/C(=O)c2ccc(NC(=O)C(C)C)cc2)cc1
-15% | CC[C@@H](C(=O)[C@@H](C)[C@@H](O)[C@H](C)CCc1ccc(C)c(O)c1C(=O)O)[C@H]1O[C@](CC)([C@H]2CC[C@](O)(CC)[C@H](C)O2)C[C@@H]1C
5% | COc1cc(NC(=O)c2cc3ccccc3o2)c(OC)cc1Cl
21% | Cc1ccc(CSc2ncc(Cl)c(C(=O)Oc3ccccc3F)n2)cc1
-8% | O=S(=O)(c1ccc(NC(=S)NN=C2CCCCC2)cc1)N1CCOCC1
-20% | COc1ccc(CCNC(=O)c2ccc(OCC(=O)N3CCOCC3)c(OC)c2)cc1OC
8% | CCOc1ccc(-c2cc(-c3nc(-c4cc(OC)c(OC)c(OC)c4)no3)[nH]n2)cc1
-1% | O=C(Nc1ccc(N2CCCCC2)cc1)c1ccccc1
-5% | Cc1occc1-c1nnc(-c2cc([N+](=O)[O-])cc([N+](=O)[O-])c2)o1
-18% | CC(=O)C1=C(C)NC(=S)NC1c1cccc([N+](=O)[O-])c1 (configuration not stated)
-14% | O=C(Nc1nc2ccc(Cl)cc2s1)c1ccc(N2CCCCC2)c([N+](=O)[O-])c1
13% | CCCC(=O)Nc1nc(C)c(-c2csc(Nc3ccccc3C)n2)s1
-3% | O=C(Nc1ccc(N2CCCC2)cc1)c1ccc(Br)o1
-12% | COc1ccc(-c2nnc(SCC(=O)NCCc3ccc(OC)c(OC)c3)nc2-c2ccc(OC)cc2)cc1
-17% | NC(=O)CC(NC(=O)c1ccccc1)c1ccc(N2CCC(N3CCCC3)CC2)c([N+](=O)[O-])c1 (configuration not stated)
7% | Cn1cc(S(=O)(=O)N2CCCC2)cc1C(=O)Nc1cccc(C(F)(F)F)c1
8% | COC(=O)c1ccc(OCC(O)CN(CCO)CC(O)Cn2ccc3ccccc32)cc1 (configuration not stated)
-6% | CCSc1nnc(NC(=O)CCN2C(=O)C3CCCCC3C2=O)s1 (configuration not stated)
2% | O=C(NC(Cc1c[nH]c2ccccc12)C(=O)N1CCOCC1)c1cccs1 (configuration not stated)
-7% | CCN(CC)C(=O)Cn1cc(S(=O)(=O)CC(=O)Nc2ccc(C(N)=O)cc2)c2ccccc21
-7% | COC(=O)COc1cccc2c(=O)n(CC(=O)NCCc3ccccc3)ccc12
-6% | S=C(NC1CCCCC1)N1CCN(Cc2ccccc2)CC1
-7% | N#Cc1ccc(-c2ccc(F)cc2)nc1Sc1ccc(F)cc1
-2% | COc1ccc(CN2C(=O)c3ccccc3C2=O)cc1C(=O)Nc1ccc(C)cc1C
12% | Cc1nnc(N(C)C(=O)c2ccncc2)s1
-4% | Cc1[nH]c2ccccc2c1C(=O)CNc1nccs1
-23% | COc1ccccc1OCc1nnc(SCC(=O)NCc2ccco2)n1Cc1ccco1
6% | COc1ccc(CC(NC(C)=O)C(=O)NC2CCN(c3c4c(nc5ncnn35)CCC4)CC2)cc1 (configuration not stated)
10% | CC(C)N1CCC(NC(=O)Nc2ccccc2)CC1
3% | COc1ccc(S(=O)(=O)N2CCN(C(=O)[C@@H]3CCC(=O)N3C3OC(=O)c4ccccc43)CC2)cc1 (some centres not stated)
-8% | CC(C)(CCc1ccccn1)C(=O)C(CCc1ccccn1)CCc1ccccn1
-16% | CN1CCCN(C(=O)c2cc3c(s2)CCCC3)CC1
21% | CCn1cc(C(=O)NCCC(=O)OC)c(=O)c2cc3c(cc21)OCO3
-10% | CS(=O)(=O)N(C(=O)NC(=O)NC1CCS(=O)(=O)C1)C1CCCCC1 (configuration not stated)
4% | O=C(CCl)Nc1sccc1C(=O)c1ccccc1
-1% | c1cc2c(cc1Nc1nc(-c3ccc4c(c3)OCO4)cs1)OCCO2

Laid out differently: results already given.
mol | VDR inhibitor
CC1(N2CCOCC2)C(=O)c2ccccc2C1=O | -6%
CCn1cc(C(=O)NCCC(=O)OC)c(=O)c2cc3c(cc21)OCO3 | 21%
CCOc1ccc(NC(=O)N2CCN(c3nnc(C)c4c(C)n(-c5ccccc5)nc34)CC2)cc1 | 13%
Cc1ccc2ccc(C(Nc3cccc(C(F)(F)F)c3)c3cccnc3)c(O)c2n1 (configuration not stated) | -3%

(more compounds)
VDR inhibitor | structure
-6% | O=C(CCc1nc(-c2ccc(F)cc2)no1)Nc1cccc(C(=O)NC2CC2)c1
-4% | Cc1nc(NC(=O)c2cc(-n3cnnc3)ccc2Cl)ccc1Br
-23% | COc1ccc2nc(C)cc(N3CCN(S(=O)(=O)c4ccccc4F)CC3)c2c1
22% | COc1ccc(S(=O)(=O)Nc2cccc3ccccc23)cc1
11% | Cc1ccc(CC2CC(=O)N(c3ccc(C)cc3)C2=O)cc1 (configuration not stated)
13% | CCN(C(=O)CSc1nnc(COc2ccccc2F)n1N)C1CCS(=O)(=O)C1 (configuration not stated)
-11% | Cc1csc(NC(=O)CSc2nnc(C)c(=O)n2N)n1
11% | COc1cccc(/C=C2\C=C(c3ccc(C)cc3)OC2=O)c1OC(C)=O
-5% | CC(C)(Oc1ccc(Br)cc1)C(=O)N1CCc2ccccc21
? | O=C1CSC(=NC2CCCCC2)N1
-3%&-8% | C#C[C@]1(O)CC[C@H]2[C@@H]3CCc4cc(OC5CCCC5)ccc4[C@H]3CC[C@@]21C
-11% | O=C(N/N=C/c1ccco1)c1cc2ccccc2o1
1% | COc1cccc(N(CC(=O)O)S(=O)(=O)c2ccccc2)c1
-9% | O=C(c1ccc(Cl)cc1)N1CCC(N2CCC(C(=O)N3CCOCC3)CC2)CC1
-7% | O=C(CCN1C(=O)COc2ccccc21)NCc1cccs1
-9% | CCc1ccc(CNC(=O)C2CCN(c3nc4ccccc4nc3C(F)(F)F)CC2)cc1
7% | COc1cc(OC)c(NC(=O)c2ccc(F)cc2)cc1Cl
-4% | C/C(=N\NC(=O)C1CC1)c1ccc(N2CCOCC2)cc1
-9% | Cc1cc(NC(=O)C2CCCCC2C(=O)O)no1 (configuration not stated)
4% | CCOc1ccc(CC(=O)NCC(c2cccs2)S(=O)(=O)c2ccc(F)c(C)c2)cc1 (configuration not stated)
-6% | COCCNS(=O)(=O)c1ccc(OCC(=O)OC)c(Cl)c1
-6% | CN(C)S(=O)(=O)c1ccc(N2CCCC2)c(C(=O)N2CCN(S(=O)(=O)c3cccc(F)c3)CC2)c1
? | C[n+]1c2n(c3ccccc31)N=C(c1ccc(-c3ccccc3)cc1)CS2
7% | CCOC(=O)C1CCCN(C(=O)c2ccc(NC(=O)CC3SC(N4CCCC4)=NC3=O)cc2)C1 (configuration not stated)
-5% | O=C(NCC(=O)N1CCN(c2ncccn2)CC1)c1cccs1
-3% | O=C(NCCCN1CCOCC1)/C(=C/c1ccc(F)cc1)NC(=O)c1ccccc1
29% | CN(C)c1nccc(NCc2ccccc2)c1C#N
-17% | Cn1c(=O)c2c(nc(CN3CCN(c4ccccc4F)CC3)n2Cc2ccc(F)cc2)n(C)c1=O
-24% | CCOC(=O)C1=C(C)C(c2cccc(Oc3ccccc3)c2)NC(=S)N1 (configuration not stated)
-6% | Cc1ccsc1CCN1C(=O)N(c2ccccc2)C(=O)C1CC(=O)Nc1ccc(Cl)cc1 (configuration not stated)

In another format: six of the compounds above.
Molecule	VDR inhibitor
CCN(C(=O)CSc1nnc(COc2ccccc2F)n1N)C1CCS(=O)(=O)C1 (configuration not stated)	13%
Cc1csc(NC(=O)CSc2nnc(C)c(=O)n2N)n1	-11%
COc1cccc(/C=C2\C=C(c3ccc(C)cc3)OC2=O)c1OC(C)=O	11%
CC(C)(Oc1ccc(Br)cc1)C(=O)N1CCc2ccccc21	-5%
O=C1CSC(=NC2CCCCC2)N1	?
C#C[C@]1(O)CC[C@H]2[C@@H]3CCc4cc(OC5CCCC5)ccc4[C@H]3CC[C@@]21C	-3%&-8%

More entries
VDR inhibitor | structure
2% | CCN1CCN(c2ccc(S(=O)(=O)N3CCCC3)cn2)CC1
11% | CCN(CC(=O)NCc1cccs1)C(=O)c1cccc(S(=O)(=O)Nc2ccc(F)cc2)c1
2% | Cn1cc(C(=O)N/N=C/C=C/c2ccccc2)ccc1=O
3% | CC1CCc2cc(F)ccc2N1S(=O)(=O)c1ccc(F)cc1 (configuration not stated)
-27% | CCN(C(=O)C1CCC(CNS(=O)(=O)c2cccc3nsnc23)CC1)c1ccc(C)c(C)c1 (configuration not stated)

A portion of the library; the hit share may differ from the screen's.
